# Screening data (PubChem)
# Mtb betalactam – beta-lactam sensitization of Mtb H37Rv. M. tuberculosis H37Rv growth with meropenem, percent inhibition; hits of this screen are not shown here. inhibition, % at 25 µM. 330,000 compounds, 0.27% hits;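 active means about 74% or more and at least 40 points above the plate without the antibiotic, then above 30% in a dose series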;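 further: growth measured after seven days incubation then overnight dye step; 0% = bacteria only wells and 100% = bacteria with antibiotic; twin plates without the antibiotic show which effects depend on it; some results filed as inactive read as strong as hits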
# YopH inh – inhibitors of Yersinia enterocolitica YopH tyrosine phosphatase | 140,000 compounds, 0.16% hits | fluorescence Ex485/Em525 | inhibition, %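 (about 10 µM by stock and volumes)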;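 active means inhibition of 50% or more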;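 further: controls were vehicle for no effect and minimum signal wells for full effect; inactives centre near -20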
# RecA splice inh – blocks M. tuberculosis RecA intein splicing | P9WHJ3 | cell-free RecA intein splicing, fluorescence | inhibition, %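 (about 9 µM by stock and volumes)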 | 290,000 compounds, 0.75% hits; in the data active means inhibition above about 30%;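 further: 0% = vehicle wells and 100% = reference inhibitor control wells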
# Target sequence (P9WHJ3 whole entry, looked up, canonical isoform): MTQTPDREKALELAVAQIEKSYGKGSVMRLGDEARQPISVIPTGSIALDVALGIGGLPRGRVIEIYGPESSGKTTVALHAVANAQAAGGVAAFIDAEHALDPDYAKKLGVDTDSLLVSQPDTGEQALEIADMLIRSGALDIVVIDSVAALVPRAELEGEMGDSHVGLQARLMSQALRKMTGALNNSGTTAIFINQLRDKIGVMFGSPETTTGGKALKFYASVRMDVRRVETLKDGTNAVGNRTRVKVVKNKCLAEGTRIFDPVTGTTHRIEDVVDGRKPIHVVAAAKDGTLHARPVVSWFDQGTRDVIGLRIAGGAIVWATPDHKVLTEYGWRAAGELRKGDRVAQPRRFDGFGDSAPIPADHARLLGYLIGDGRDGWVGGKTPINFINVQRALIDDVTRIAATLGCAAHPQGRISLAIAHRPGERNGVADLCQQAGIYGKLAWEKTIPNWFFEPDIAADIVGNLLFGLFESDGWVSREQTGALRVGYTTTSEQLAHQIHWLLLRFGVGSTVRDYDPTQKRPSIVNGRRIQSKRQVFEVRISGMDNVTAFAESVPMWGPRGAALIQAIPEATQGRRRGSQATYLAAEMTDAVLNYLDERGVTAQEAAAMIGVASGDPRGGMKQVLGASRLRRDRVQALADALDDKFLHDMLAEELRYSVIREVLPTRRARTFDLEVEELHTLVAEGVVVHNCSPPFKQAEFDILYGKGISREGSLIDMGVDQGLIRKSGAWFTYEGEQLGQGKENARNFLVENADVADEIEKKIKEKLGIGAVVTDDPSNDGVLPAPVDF
# Arbovirus inh – arbovirus infection inhibition; inhibition, % at 10 µM; 200,000 compounds, 0.37% hits; arbovirus infection cell-based antiviral screen; AID 1251;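 active means inhibition from about 30%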;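 further: bluetongue infection of BSR cells; cell survival read as ATP light after 72 h; 0% = infected wells without compound and 100% = uninfected wells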
# Mtb H37Rv – M. tuberculosis H37Rv growth inhibitors, H37Rv strain (AID 1626); M. tuberculosis H37Rv growth inhibition; higher % means a stronger effect; one-dose inhibition, % at 10 µM; IC50 in µM for titrated hits; 220,000 compounds, 0.95% hits;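 active means confirmed in a dose series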;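 further: bacteria incubated seven days before Alamar blue readout; 0% = bacteria only wells and 100% = bacteria with antibiotic wells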
# Arbovirus inh repeat – recorded beside Arbovirus inh, whose call it bears; inhibition, %; measured here: 10K subset replicate screen; many hits read low in the repeat;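 first of two repeat runs on a subset; 0% = infected and 100% = uninfected wells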
# The depositor's hits bear a star; · = no result given. These rows are one share of the data. The share of hits here may be higher or lower than overall.
SMILES,Mtb betalactam,YopH inh,RecA splice inh,Arbovirus inh,Mtb H37Rv,others
CCOC(=O)c1ccc(N=CC2=C(O)CC(C)(C)CC2=O)cc1,99,-40,-3.4,-1,1.4µM*,
COc1ccc(Br)cc1CN(C)CC(=O)Nc1c(Cl)ccc(C)c1Cl,-7,-28,-0.9,6,-10%,
CSCCC(NC(=O)c1ccccc1Cl)C(=O)NNC(=O)c1ccncc1 (stereo unspecified),-8,·,-0.6,·,·,
CC(C)CC(NS(=O)(=O)c1ccc2c(c1)oc(=O)n2C)C(=O)N1CC=C(c2ccccc2)CC1 (stereo unspecified),-10,-42,·,1,6%,Arbovirus inh repeat=-7
Cc1ccc(CCNC(=O)CC2Oc3ccc(C)cc3NC2=O)cc1 (stereo unspecified),0,-18,1.1,-20,2%,
COC(=O)C1(C(=O)OC)Sc2ccccc2C1=O,7,-28,-3.2,1,-6%,
COc1ccc(C(=O)N2CCN(c3ccc(C)cc3)CC2)cc1OC,-11,-40,-1.7,1,0%,Arbovirus inh repeat=8
COc1ccc(-n2c(=S)[nH]c3cc(C(=O)NCCCN4CCCC4=O)ccc3c2=O)cc1,-4,-31,3.7,7,·,
Cc1cccc(NC(=O)c2sc3nc(N)c(C#N)cc3c2N)c1,2,-7,-0.9,-2,36%,
O=C(Cn1nc(C(F)(F)F)c2c1CCCC2)NCc1ccco1,-35,-32,·,4,-2%,
O=C(Nc1ccc(-c2nc3ccccc3s2)cc1)c1cc(-n2cnnc2)ccc1Cl,4,-44,·,-20,8%,
Cc1nn(-c2ccccc2)c2c1/C(=N/O)CC(C)(C)C2,13,-30,4.7,5,·,
O=C(NCc1ccccn1)c1cc(-c2ccccc2)nc2ccccc12,5,-29,0.2,-3,-10%,
CC(C)(C)c1ccc(-c2ccc3c(c2)S(=O)(=O)c2ccccc2C3=O)cc1,-14,·,-0.4,·,-6%,
COc1ccc(N2CCN(S(=O)(=O)c3ccc(Cl)s3)CC2)cc1,4,·,-3.9,5,4%,
CCn1c(SCC(=O)N2CCCCC2)nc2c1c(=O)n(C)c(=O)n2C,-3,·,-2.2,·,·,
CCn1nc(NC(=O)COC)c2cc3cccc(C)c3nc21,0,·,-195,·,·,
CN=c1scc(-c2cc(OC)ccc2OC)n1/N=C/c1c(C)[nH]c2ccccc12,26,-21,4.1,8,3%,
COc1ccc(Cl)cc1NC(=O)Cn1c(=O)oc2ccccc21,-5,·,-0.9,·,·,
O=C1CNC(c2ccccc2Cl)c2cc(Br)ccc2N1 (stereo unspecified),3,·,-0.7,·,·,
CN(CC(=O)Nc1ccc(F)cc1)C(=O)C1CCN(S(=O)(=O)c2ccc3c(c2)OCCO3)CC1,-1,·,3.6,·,·,
Cc1cc(CNC(=O)C2CCC(=O)N(CCc3cccc(F)c3)C2)on1 (stereo unspecified),-7,·,-3.1,·,·,
Cc1cc(NC(=O)/C=C/c2cccc(F)c2)n(-c2nc3ccccc3[nH]2)n1,57,-1,2.4,-8,8%,
COc1ccc(OCCCC(=O)Nc2ccc3c(c2)OCO3)cc1,77,-35,-2.6,-5,29%,
CCOc1ccc(N(CC(=O)NCc2ccccc2)S(=O)(=O)c2ccc(C)cc2)cc1,2,·,-0.5,·,·,
COc1ccc(/C=C2\N=C(C)OC2=O)cc1OC,-1,·,0.7,·,·,
Cc1cc2cc(CN(Cc3ccco3)S(=O)(=O)c3c(C)ccc4nsnc34)c(=O)[nH]c2cc1C,-2,10,0.1,4,-1%,
O=C(COC(=O)c1ccc(N2CCOCC2)c([N+](=O)[O-])c1)Nc1ccc2c(c1)OCO2,32,-5,-5.0,1,2%,
COc1cccc2cc(C(=O)N3CCN(c4ccc(C)cc4C)CC3)c(=O)oc12,-3,6,3.5,-3,9%,Arbovirus inh repeat=6
CCCCOc1ccc(N(CC(=O)NC2CCCCC2)C(=O)c2snc(C(N)=O)c2N)cc1,-2,·,-4.7,·,·,
CC(C)(C)NC(=O)CSc1nnc(-c2ccncc2)o1,0,-10,-2.5,1,6%,
O=c1cc(-c2cccc(Br)c2)oc2cccc(O)c12,68,·,0.3,·,5%,
Cn1c(=O)c2c(nc(SCCN3CCOCC3)n2Cc2cccc3ccccc23)n(C)c1=O,-4,-11,1.7,-8,-11%,
Cc1ccc(C(=O)/C=C/NCc2ccc(F)cc2)cc1,3,-37,-1.0,-3,-3%,
FC(F)(F)c1cc(C(F)(F)F)c2ccc(N3CCN(c4ccccc4)CC3)nc2n1,-3,-33,5.7,-11,-3%,
Nc1c(C(=O)C2CC2)sc2nc(-c3cccs3)cc(C(F)(F)F)c12,2,-15,-0.3,-12,-3%,
NC(=O)CSc1nc2cc3c(cc2c(=O)n1CCCC(=O)NCc1ccc2c(c1)OCO2)OCO3,7,5,-2.3,0,-3%,
COc1ccc(NS(=O)(=O)c2cccc(C(=O)NNC(=O)c3cc(S(N)(=O)=O)ccc3OC)c2)cc1,-7,·,1.4,·,·,
COc1c(CC=C(C)C)c(O)cc2oc(=O)c3c4ccc(O)cc4oc3c12,-2,·,-30,·,5%,
CN(/N=C/c1cc(Cl)cc(Cl)c1O)c1c(Cl)cccc1[N+](=O)[O-],1,·,2.6,·,3%,
CC1CCN(C(=O)CCS(=O)(=O)c2cc3c(cc2Cl)NC(=O)CO3)CC1,-3,·,0.2,·,·,
COc1ccc2c(C)c(C(=O)O)oc2c1,1,-21,0.0,8,-8%,
CSc1nc2sc3c(c2c(=S)[nH]1)CC(C)(C)OC3,3,·,-1.1,·,·,
O=C1C=C(NC2CCCC2)CC(c2ccccc2)C1 (stereo unspecified),-2,·,-8.7,-6,·,
O=C(c1ccc(OC2CCN(CCc3ccccc3)CC2)cc1)N1CCCC(CCCO)C1 (stereo unspecified),4,·,0.6,·,·,
O=C(c1cnn2c(C(F)F)cc(C3CC3)nc12)N1CCCC1,-10,-5,-1.0,10,0%,
Cc1ccnc(NC(=O)c2cc3cc(F)ccc3s2)c1,55,·,1.1,·,·,
Cc1nc2cc([N+](=O)[O-])ccc2c(=O)n1-c1ccc(Br)cc1,4,·,0.3,·,·,
CCN(C(=O)CSc1nc2cc(C(F)(F)F)ccc2n1Cc1ccccc1)C1CCS(=O)(=O)C1 (stereo unspecified),5,-20,-1.1,-25,0%,
O=C(COC(=O)C1CC(=O)N(c2nc(-c3ccccc3)cs2)C1)c1ccccc1 (stereo unspecified),39,4,-1.9,5,3%,
COc1ccc(S(=O)(=O)N2CCCC(C(=O)NCc3ccc(F)cc3)C2)cc1 (stereo unspecified),4,·,0.0,·,·,
CCC(C)[C@H](NC(=O)NC1CCN(Cc2ccccc2)CC1)C(=O)OC (stereo partly specified),0,14,38*,2,5%,
CC(C)(C)Nc1c2ccccc2nc2ccccc12,-2,·,16,·,·,
O=C(Cn1nc(-c2ccccc2)c2ccccc2c1=O)Nc1cccc(O)c1,30,·,1.1,-13,20%,
COc1ccccc1-c1coc2c(CN3CCOCC3)c(O)ccc2c1=O,-2,·,-1.9,·,·,
CCN(CC)S(=O)(=O)c1cccc(-c2n[nH]c(=S)n2/N=C/c2ccc(C(=O)OC)cc2)c1,1,-12,1.3,7,-4%,
COc1ccccc1NC(=O)N1CCC(NC(=O)C(Cc2ccccc2F)NC(C)=O)CC1 (stereo unspecified),2,·,2.3,·,·,
N#Cc1ccc(N2C(=O)[C@@H]3C(C(=O)c4ccc5ccccc5n4)=NN[C@@H]3C2=O)cc1,-5,-13,0.6,0,-6%,
Cc1cccc(N(C(=O)Nc2ccccc2)C2=NCC(C)S2)c1 (stereo unspecified),2,·,·,1,-9%,Arbovirus inh repeat=0
O=C(c1ccccc1)N1CCN(C2C3CC4CC(C3)CC2C4)CC1 (stereo unspecified),-6,6,0.8,14,-2%,

# (continued)
SMILES,Mtb betalactam,YopH inh,RecA splice inh,Arbovirus inh,Mtb H37Rv,others
O=C(CCCN1C(=O)/C(=C/c2cccs2)SC1=S)Nc1ccccn1,6,·,2.4,-4,6%,
O=C([C@@H]1CC=C[C@@H]2CCN(C3CCCCC3)C(=O)[C@@H]21)N1CCN(c2ccccc2)CC1,-2,·,-5.8,·,-10%,
COc1ccc2c(=O)c(Oc3ccc(C(=O)O)cc3)c(C(F)(F)F)oc2c1,13,·,-3.8,6,2%,
CCOC(=O)C1(P(=O)(c2ccccc2)c2ccccc2)CCC1,-13,-10,4.2,3,-1%,
CNC(=O)C1CCN(C(=O)c2ccc(-c3ccccc3)cc2)CC1,-1,-6,-0.9,0,-5%,
N#Cc1c2c(c(Nc3ccc(O)cc3)n3c1nc1ccccc13)CCC2,3,-14,-1.4,-7,4%,
Cc1c(C(=O)N2CCC3(CC2)OCCO3)sc2ncnc(N3CCc4ccccc4C3)c12,0,·,-0.6,3,8%,
COc1ccc(-n2c(Cc3cc(=O)[nH]c(=O)[nH]3)nnc2SCC(=O)N2CCCC2)cc1,2,-39,-0.3,0,·,Arbovirus inh repeat=0
CCC(C)C(=O)Nc1ncc2c(n1)CC(c1cccs1)CC2=O (stereo unspecified),1,-4,2.5,-1,4%,
N#C/C(=C\c1cccc([N+](=O)[O-])c1)c1nnc2n1CCCCC2,92,-11,4.2,0,13%,
COc1cc(CNc2ccc(CNc3ncn[nH]3)cc2)cc(Cl)c1OCc1ccccc1,0,-1,0.1,-21,7%,
CSCC[C@H](NC(=O)OC(C)(C)C)C(=O)NCC1CCC(C(=O)N[C@@H](Cc2ccccc2)C(=O)O)CC1 (stereo partly specified),-6,·,-2.0,·,·,
O=C(/C=C/c1ccc(Cl)cc1)N1CCN(Cc2ccccc2)CC1,-2,·,0.7,·,·,
COCCOC(=O)C1=C(C)Nc2nc(C)nn2C1c1ccc(F)cc1 (stereo unspecified),0,-51,0.0,9,-6%,
CN1CCCCc2c1[nH]c1ccccc1c2=O,5,-16,-8.6,-7,-11%,Arbovirus inh repeat=1
O=C(CC1SC(=Nc2ccccc2)N(CCc2ccccn2)C1=O)Nc1ccc(F)cc1 (stereo unspecified),13,-8,6.8,-16,6%,
COC(=O)Cc1c(C)nc2nc(-c3ccc(Cl)cc3)[nH]n2c1=O,15,-20,7.1,-3,6%,
O=C(O)c1ccc(NS(=O)(=O)c2ccc(Cl)c(C(=O)Nc3ccccc3)c2)cc1,2,·,-4.2,·,·,
CC(C)(C)OC(=O)NCCc1nnc(SCc2ccc(Cl)cc2Cl)o1,16,-4,1.2,-13,15%,
Cc1cc([N+](=O)[O-])nn1CC(=O)Nc1c(C)n(C)n(-c2ccccc2)c1=O,-7,·,-0.4,7,-10%,
COCCCn1c(SCC(=O)Nc2ccc3c(c2)OCCO3)nnc1-c1ccoc1C,-3,-5,0.9,-2,6%,
O=C(COC(=O)c1cccnc1Nc1ccccc1F)NC1CC1,0,-17,-1.3,-3,1%,
O=C(CSc1ccccc1)NCc1ccccn1,-6,-20,0.0,1,1%,
CSCC(O)Cn1[nH]c(=O)c2cc(Cl)c(Cl)cc2c1=O (stereo unspecified),-5,·,·,·,-2%,
